Ecoli rRNA inh: inhibits bacterial ribosomal RNA function over humanized ribosomes; E. coli WT GFP vs humanized-ribosome RFP mutants, fluorescence, 24 h; active compounds read low; DMSO median 0, no signal -100; hit rate 1.6% among 350,000; GFP signal change (wild-type ribosome), % (concentration not given with the values);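 active = significant combined selectivity score with lowered wild-type GFP, culture density cut under 30%, mutant RFP and density less affected; inactive = any of these conditions unmet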; also: one replicate is shown; some compounds called inactive have numbers as strong as hits
Ecoli growth: E. coli growth inhibition. hit rate 0.21% among 330,000. Escherichia coli growth, OD600, 23 h; active compounds read low. AID 1053175. OD600 absorbance (no concentration beside the values);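 active = OD600 absorbance below the run mean of sample wells minus 3.6 SD, in any replicate, cut at about 0.56 in these data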;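 also: stock transfer was 300 nL into about 60 µL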
FGF22 binding: shifts melting point of recombinant human FGF22; Q9HCT0; recombinant FGF22 thermal shift, SYPRO orange fluorescence; percent of sucrose octasulfate shift, DMSO zero; calls only at 9.99 µM; hit rate 1.5% among 340,000;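 active = melting point raised past a set limit in the mean and every replicate; inconclusive = no clear call; three in four hits are not shown here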
MLL AF4-AF9 inh: inhibitors of human MLL-AF4/AF9 interaction | AlphaScreen, biotin-AF4 peptide binding to FLAG-AF9 | inhibition, % at 10 µM | hit rate 0.47% among 350,000;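 active = every replicate reaching a set inhibition limit, whatever the replicate mean, cut at about 25% in these data; inconclusive = mean inhibition reaches that limit but some replicates miss it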;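 also: 0% = plate neutral control median and 100% = total signal loss; the record names both 10 and 1 µM as test concentration; the first replicate is given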
Target sequence (P42568 whole entry, looked up): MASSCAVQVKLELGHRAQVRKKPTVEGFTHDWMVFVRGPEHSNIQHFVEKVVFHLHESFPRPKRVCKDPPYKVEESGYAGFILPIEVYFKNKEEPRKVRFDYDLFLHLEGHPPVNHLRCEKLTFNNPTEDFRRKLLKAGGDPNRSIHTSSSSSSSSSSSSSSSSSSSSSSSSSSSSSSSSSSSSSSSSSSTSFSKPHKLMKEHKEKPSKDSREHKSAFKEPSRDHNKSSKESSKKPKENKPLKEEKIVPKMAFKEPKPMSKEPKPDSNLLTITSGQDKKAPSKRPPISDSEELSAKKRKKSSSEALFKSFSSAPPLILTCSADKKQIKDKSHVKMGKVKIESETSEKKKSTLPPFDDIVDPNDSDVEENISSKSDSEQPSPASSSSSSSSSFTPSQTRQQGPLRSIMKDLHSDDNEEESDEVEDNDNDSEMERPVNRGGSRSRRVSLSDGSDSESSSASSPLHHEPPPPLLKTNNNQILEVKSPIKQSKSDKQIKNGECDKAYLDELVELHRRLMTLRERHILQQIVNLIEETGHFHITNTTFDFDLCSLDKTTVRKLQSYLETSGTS
Vif TR-FRET: HIV-1 Vif–A3G interaction blockers – biochemical, TR-FRET, GST-Vif 1-94, biotin-A3G peptide, dose response retest, primary screen (AID 1117319). TR-FRET GST-Vif / biotin-A3G peptide binding; higher % means a stronger effect; test concentration not given here; strong numbers were not always called active. inhibition, %; hits with a dose series show IC50 in µM. hit rate 0.57% among 260,000;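 active = above the screen mean plus three standard deviations and confirmed in dose response; inconclusive = results disagree or hit not tested in dose response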;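 also: Vif residues 1-94 fused to GST binding biotinylated APOBEC3G peptide 110-148; 0% = full assay without inhibitor and 100% = GST in place of GST-Vif; retest series ran down from 100 µM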
HNF4A DNA FP: change in binding of human HNF4 alpha to DNA; hit rate 0.3% among 360,000; AID 1224865; HNF4a-FITC DNA binding, fluorescence polarization, 1 h; P41235; activity change, % at 10 µM; in the data active = activity change above about 30%, passing the limit was not always enough;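 also: controls were the assay level and a saturating level of protein; the project sought stronger binding though the title names inhibitors; some compounds called inactive have numbers as strong as hits; positive values seem to mean higher polarization but the record does not say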
Target sequence (P41235 whole entry, looked up): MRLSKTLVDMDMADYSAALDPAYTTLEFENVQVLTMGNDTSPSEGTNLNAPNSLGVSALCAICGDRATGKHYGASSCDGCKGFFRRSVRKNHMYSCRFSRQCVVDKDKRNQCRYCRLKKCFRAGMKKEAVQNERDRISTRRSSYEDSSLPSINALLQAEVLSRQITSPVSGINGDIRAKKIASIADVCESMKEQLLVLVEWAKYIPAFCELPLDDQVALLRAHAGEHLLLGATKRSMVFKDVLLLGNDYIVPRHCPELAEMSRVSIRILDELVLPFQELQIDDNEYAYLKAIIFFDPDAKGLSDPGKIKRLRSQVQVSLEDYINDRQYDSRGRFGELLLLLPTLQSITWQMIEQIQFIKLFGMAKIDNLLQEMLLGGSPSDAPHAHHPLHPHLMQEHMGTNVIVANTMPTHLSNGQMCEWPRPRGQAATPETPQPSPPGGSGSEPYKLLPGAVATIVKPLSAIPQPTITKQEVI
ALR inh: human ALR oxidase inhibition via reduced H2O2. purified ALR, DTT oxidation, H2O2 HRP-luminol luminescence. P55789. hit rate 3.8% among 290,000. inhibition, % (test concentration not listed);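 active = mean and each replicate at 75% or more; inconclusive = only one of the two met; inactive = neither met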;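 also: stock transfer was 7.5 nL into about 7.5 µL; 0% = neutral wells and 100% = wells with inactivated enzyme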
Ecoli rRNA inh OD600: recorded beside Ecoli rRNA inh, whose call it bears; OD600 change, %; measured here: OD600 growth;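 optical density of the mix in the first replicate; 0 = DMSO median and -100 = no signal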
Ecoli rRNA inh RFP: also measured in Ecoli rRNA inh; calls as there; RFP signal change, %; measured here: RFP humanized mutant strains;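 first replicate; 0 = DMSO median and -100 = no signal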
* = called active by the depositor; i = inactive; ? = inconclusive; . = not tested or not shown; & = joins results of further samples. These rows are one share of the data. The share of hits here may be higher or lower than overall.

Below each compound: Ecoli rRNA inh | Ecoli rRNA inh OD600 | Ecoli rRNA inh RFP | Ecoli growth | FGF22 binding | MLL AF4-AF9 inh | Vif TR-FRET | HNF4A DNA FP | ALR inh
[1] CN(C)C(=O)CN1CCN(c2nc3nonc3nc2N2CCCCC2)CC1
→ 6 | 6 | -2.9 | 0.7 | i | -1.2 | 6% | -2.6 | -5
[2] C[C@@H]1CCCCO[C@H](CN(C)S(=O)(=O)c2ccc(Cl)cc2)[C@H](C)CN([C@H](C)CO)C(=O)c2cc(NS(=O)(=O)c3ccccc3)ccc2O1
→ -2 | 3 | -1.4 | . | i | -9.5 | . | . | .
[3] CCOc1ccccc1NC(=O)NCCN1CCCCC1
→ -3 | 4 | -4.6 | 0.65 | i | 3.0 | 0% | 1.4 | -16
[4] C[C@@H]1CN([C@@H](C)CO)C(=O)c2cc(NS(=O)(=O)c3ccccc3)ccc2O[C@@H](C)CCCCO[C@@H]1CN(C)C(=O)Nc1ccc2c(c1)OCO2
→ 3 | -11 | -1.6 | . | i | 2.4 | . | . | .
[5] CSc1nnc(C)c(=O)n1COC(=O)COc1ccccc1F
→ 6 | 6 | 7.1 | 0.72 | i | -7.9 | -7% | -2.5 | 1
[6] CN(C(=O)c1ccc(C#N)cc1)c1nnc(-c2cnccn2)s1
→ 13 | 11 | -2.3 | 0.72 | i | . | -34% | 13 | 0
[7] COc1cc(NS(=O)(=O)c2ccc(Br)cc2)c(OC)cc1NC(=O)c1ccco1
→ . | . | . | 0.72 | . | . | 11% | 68* | 54
[8] CC(C)NC(=O)Nc1ccc2c(c1)C(=O)N([C@@H](C)CO)C[C@@H](C)[C@@H](CN(C)Cc1ccncc1)OCCCC[C@H](C)O2
→ -3 | -5 | -2.3 | . | i | -1.1 | . | . | .
[9] O=S1(=O)CC(N2CCN(Cc3ccccc3F)CC2)CN1Cc1cn(Cc2ccc(Cl)cc2)nn1 (centres undefined)
→ -19* | -7.7* | 4.6* | . | i | -2.4 | . | 1.6 | .
[10] O=C(Nc1nccs1)c1ccc(CSc2nnnn2-c2ccccc2)cc1
→ . | . | . | 0.74 | . | . | 8% | -2.0 | 31
[11] NC(=O)CC(NC(=O)Cc1cccc2ccccc12)c1ccc(N2CCC(N3CCCC3)CC2)c([N+](=O)[O-])c1 (centres undefined)
→ 7 | 9 | 0.6 | 0.74 | i | . | . | 0.4 | -14
[12] COc1ccc2nc(NC(=O)CSc3nccc(C)n3)sc2c1
→ . | . | . | 0.65 | . | . | -5% | -2.6 | -5
[13] COc1ccc(Cl)cc1NC(=O)C/C(C)=N/NC(=O)Cc1ccccc1
→ 24 | 6 | 0.5 | . | i | 0.0 | 5% | -3.3 | 0
[14] N#CC(C#N)=C1C=CC=CN1/C(=C\c1ccco1)C(=O)c1ccccc1
→ -31 | -20 | 15 | 0.71 | i | 14 | 3% | -1.3 | .
[15] CC(=O)c1ccc(N2CCN(C(=O)Cn3c(=S)[nH]c4ncccc4c3=O)CC2)cc1
→ . | . | . | 0.7 | . | . | -2% | . | -9
[16] O=C(c1ccncc1)N1CC2(C1)[C@H](c1ccccc1)[C@@H](CO)N2C(=O)c1ccncc1
→ 4 | 9 | -3.9 | . | i | -1.1 | . | . | .
[17] COc1ccc(CCC(=O)Nc2cccc(S(=O)(=O)N3CCCC3)c2)cc1OC
→ . | . | . | 0.72 | i | 0.7 | -11% | 3.1 | .
[18] Cc1ccccc1NC(=O)c1c([N+](=O)[O-])cnn1C
→ 8 | 6 | 0.2 | 0.64 | i | -0.4 | . | 1.8 | -73
[19] Oc1c(CN2CCCCC2)cc(COCc2ccccc2)c2cccnc12
→ . | . | . | . | . | . | 18% | -2.4 | 8
[20] C[C@@H]1CN([C@H](C)CO)S(=O)(=O)c2ccc(C#CCN(C)C)cc2O[C@H]1CN(C)C(=O)CC1CC1
→ 2 | 2 | -1.4 | . | i | 1.1 | . | . | .
[21] COc1ccccc1C(=O)NC(CCSC)C(=O)OCC(=O)N1CCCC1=O (centres undefined)
→ 6 | 7 | -2.4 | 0.71 | i | -1.8 | -4% | 0.1 | .
[22] Oc1ccc(Cl)cc1Cc1cc(Cl)ccc1O
→ . | . | . | 0.13* | i | 6.3 | . | 1.0 | 70
[23] COc1ccc(CCNC(=O)CN(c2ccccc2OC)S(C)(=O)=O)cc1
→ . | . | . | 0.69 | . | . | 1%&-6% | 1.2 | -13
[24] O=C(NCc1ccncc1)c1nnc(Cc2c(F)cccc2Cl)o1
→ . | . | . | 0.7 | . | . | -8% | -1.6 | -3
[25] CCN(CC)CCN(C(=O)c1ccc(Br)s1)c1nc2cc3c(cc2s1)OCCO3
→ 2 | 4 | 4.3 | 0.69 | i | 19 | 9% | 5.2 | -18
[26] CCn1c(SCC(=O)c2ccccc2)nc2sc3c(c2c1=O)CCN(C)C3
→ -2 | -2 | 3.5 | 0.65 | i | 0.3 | 13% | 7.8 | 99*
[27] CCC1CCCCN1C(=O)c1ccc(OC)c(OC2CCN(C(C)C)CC2)c1 (centres undefined)
→ . | . | . | 0.64 | i | 1.3 | 2% | -1.5 | 10
[28] C[C@H](CO)N1C[C@H](C)[C@H](CN(C)Cc2ccc(Oc3ccccc3)cc2)Oc2ccc(NC(=O)Nc3ccc(F)cc3)cc2CC1=O
→ -2 | -2 | 2.1 | . | i | -0.2 | . | . | .
[29] COCCNC(=O)C1(C)CCN(C(=O)c2ccc(F)c(C)c2)C1 (centres undefined)
→ 7 | 10 | -13 | . | i | -0.1 | . | -2.0 | .
[30] CCn1c(SCC(=O)Nc2nncs2)nnc1-c1ccco1
→ 5 | 15 | 1.0 | 0.67 | i | 3.5 | . | 1.2 | .
[31] CCCN1C[C@@H](C)[C@@H](OC)CN(C)C(=O)c2cc(NC(=O)C3CC3)ccc2OC[C@@H]1C
→ 0 | 1 | -0.9 | . | i | -1.6 | . | . | .
[32] Clc1ccc(-c2noc(CCCc3ccccc3)n2)cc1
→ . | . | . | 0.71 | . | . | 2% | -1.6 | -2
[33] C[C@H](CO)N1C[C@H](C)[C@@H](CN(C)Cc2ccc3c(c2)OCO3)OCCCC[C@H](C)Oc2ccc(NC(=O)NC3CCCCC3)cc2C1=O
→ 0 | -14 | -1.8 | . | i | 6.2 | . | . | .
[34] CC1=NN(Cc2ccccc2)C(=O)/C1=C/c1ccc(N(C)C)cc1
→ 9 | -1 | -3.6 | 0.72 | i | 9.0 | 5% | 4.9 | -6
[35] CCN(CC(=O)Nc1c(F)cccc1F)C(=O)C1CCC1
→ 4 | 1 | -2.4 | 0.7 | i | 1.0 | 1% | -0.3 | -2
[36] Cc1cc(NC(=O)CN2CCN(c3ncccn3)CC2)no1
→ 16 | 8 | 0.4 | 0.7 | i | -7.0 | 11% | -0.1 | -9
[37] Cc1cccc(C)c1NC(=O)C(c1ccc(C#N)cc1)n1c(=O)c(-c2ccco2)nc2ccccc21 (centres undefined)
→ -1 | 6 | 7.2 | . | i | -7.3 | . | 23 | .
[38] O=C(C[C@H]1CC[C@@H]2[C@H](COC[C@H](O)CN2S(=O)(=O)c2ccccc2)O1)NCc1ccc(-c2ccccc2)cc1
→ -2 | -38 | 13 | . | i | 11 | . | . | .
[39] O=Cc1c(NCc2cccc(F)c2)c2ccccc2[nH]c1=O
→ -1 | 4 | 1.5 | 0.61 | i | 1.9 | . | 0.0 | -4
[40] Cc1cc2oc(=O)cc(-c3ccccc3)c2c(C)c1-c1ccc(CO)cc1
→ -31 | -40 | -12 | 0.73 | i | 5.0 | -9% | 4.6 | .
[41] CCCCC(NC(C)=O)c1nc2ccccc2n1CCC (centres undefined)
→ . | . | . | 0.68 | . | . | ? | 0.1 | .
[42] CN(CCCN1CCOCC1)Cc1cn(C)nc1-c1ccccc1F
→ . | . | . | 0.72 | i | 2.6 | -11% | 1.1 | -9
[43] COC(=O)C1=C(NC(=O)c2cccc(OC)c2)CCS1
→ -14 | -19 | 1.4 | 0.7 | i | 5.7 | -6% | 5.4 | 97*
[44] COc1ccc(NC(=O)Nc2ccc3c(c2)[C@@H]2C[C@@H](CC(=O)NC4CCCC4)O[C@@H](CO)[C@@H]2O3)cc1
→ -1 | -2 | 1.8 | . | i | 4.0 | . | . | .
[45] COc1ccc(/C(C)=N/NC(=S)Nc2cc(C)ccc2C)cc1
→ 10 | 0 | -5.7 | . | i | 8.5 | . | -0.9 | -11
[46] Cc1csc(NC(=O)CSc2nnc(NC(=O)NC(C)(C)C)s2)n1
→ -21 | -22 | -2.0 | 0.66 | i | -2.7 | -8% | -3.9 | 2
[47] CCN1CCN(c2ccc(S(=O)(=O)N3CCOCC3)cc2NC(=O)/C=C/c2ccc(OC)c(OC)c2)CC1
→ -4 | 1 | -0.8 | . | . | 4.0 | . | -4.0 | -5
[48] CCCc1nnc(NC(=O)CCC(=O)NCc2ccccc2Cl)s1
→ 2 | 7 | -2.3 | 0.66 | i | 0.6 | . | 0.7 | -3
[49] COc1ccc(OCCC(=O)OCC(=O)NCc2ccccc2)cc1
→ . | . | . | 0.65 | . | . | -7% | 3.7 | .
[50] CC(=O)CC1c2ccccc2C=C(c2ccsc2)N1c1ccc(-c2cccs2)cc1 (centres undefined)
→ -42 | -70 | 6.1 | . | i | 0.7 | . | -0.5 | .
[51] COc1ccc(COC(=O)CNC(=O)C2CCCCC2)cc1F
→ 7 | 11 | 2.3 | 0.71 | i | -2.7 | -5% | 0.6 | -11
[52] Cn1cc(SCC(=O)Nc2nc3ccccc3s2)c2ccccc21
→ . | . | . | 0.71 | . | . | 25% | 4.5 | 98*
[53] COC(=O)c1ccc(CSc2nc3ccc(Cl)cc3[nH]2)o1
→ . | . | . | 0.64 | . | . | 1% | . | 97*
[54] COc1cc(C)ccc1OCCOCCOc1cc(C)c(C)cc1Br
→ . | . | . | 0.7 | . | . | 5% | 0.6 | -12
[55] Cc1noc(C)c1S(=O)(=O)NCc1cccc(Cl)c1
→ 1 | -12 | 1.4 | 0.67 | i | -0.6 | -12% | -2.4 | 4
[56] COc1ccccc1C(C#N)N1N=C(C)CC1c1ccccc1 (centres undefined)
→ -3 | -17 | -21 | 0.67 | i | 2.0 | . | 2.1 | 2
[57] Cc1ccc(C)c(S(=O)(=O)N2CCCOC2CNC(=O)C(=O)NCCCN2CCOCC2)c1 (centres undefined)
→ 21 | 14 | 3.0 | 0.67 | i | -0.6 | . | 2.5 | 6
[58] CC(C)N(CCNC(=O)c1nn(Cc2ccccc2)c(=O)c2ccccc12)C(C)C
→ 0 | -1 | -0.8 | . | i | -0.3 | . | 3.8 | -2
[59] CCOC(=O)CSc1nc2sc(C)c(C)c2c(=O)n1N
→ . | . | . | 0.72 | . | . | -3% | -2.4 | -3
[60] O=S(=O)(c1ccc(SCCOc2ccccc2Cl)nc1)N1CCCC1
→ -7 | -5 | 3.8 | 0.7 | i | -2.0 | -3% | -0.2 | -15
[61] O=C(NCCc1ccccc1)C1C(=O)Nc2ccccc2C(=O)N1C1CCCCC1 (centres undefined)
→ 24 | 20 | 4.9 | . | i | 8.7 | . | 2.9 | .
[62] CN(C)C(=O)C[C@@H]1CC[C@H]2[C@@H](COC[C@H](O)CN2CC2CCCCC2)O1
→ 0 | 10 | -1.6 | . | i | -2.3 | . | . | .
[63] Cc1cc(C)c(C(=O)COC(=O)C2CCN(c3ccc(C(F)(F)F)cn3)CC2)c(C)c1
→ 12 | 5 | 20 | 0.69 | i | -4.4 | 10% | -0.8 | -4
